RanGTP-Imp inh: disruptors of Ran-importin-beta complex formation – biochemical, FRET, CFP-Ran, YFP-importin-beta, homogeneous, primary screen; cell-free CFP-Ran/YFP-importin-beta FRET ratio; inhibition, % (no concentration beside the values); 300,000 tested, 1.1% active;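 active means most replicates above 15%; inconclusive means exactly half above 15%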;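 further: 0% = DMSO wells and 100% = Ran loaded with GDP instead of GTP; wells of about 40 µL received 100 nL stock; the first replicate is given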
rRNA inh HTS: inhibits bacterial ribosomal RNA function over humanized ribosomes | E. coli WT GFP vs humanized-ribosome RFP mutants, fluorescence, 24 h; hits give low values; DMSO median 0, no signal -100 | AID 720706 | 350,000 tested, 1.6% active | GFP signal change (wild-type ribosome), % (concentration not given with the values);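 active means significant combined selectivity score with lowered wild-type GFP, culture density cut under 30%, mutant RFP and density less affected; inactive means any of these conditions unmet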; further: one replicate is shown; some compounds called inactive have numbers as strong as hits
Vif A3G: inhibitors of Vif binding to APOBEC3G peptide, primary screen, biochemical, TR-FRET, GST-Vif 1-94, biotin-A3G peptide, dose response retest (AID 1117319); TR-FRET GST-Vif / biotin-A3G peptide binding; higher % means a stronger effect; test concentration not given here; strong numbers were not always called active; inhibition, %; hits with a dose series show IC50 in µM; 260,000 tested, 0.57% active;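 active means above the screen mean plus three standard deviations and confirmed in dose response; inconclusive means results disagree or hit not tested in dose response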;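 further: Vif residues 1-94 fused to GST binding biotinylated APOBEC3G peptide 110-148; 0% = full assay without inhibitor and 100% = GST in place of GST-Vif; retest series ran down from 100 µM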
Beta apoptosis: beta cell apoptosis inhibition | INS-1E cytokine-induced death, ATP luminescence, 48 h; percent of positive-control rescue, neutral wells zero | protection from apoptosis, % (test concentration not listed) | 300,000 tested, 0.8% active | AID 435005;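 active means all replicates at 75% or more, or half of them and the mean; inconclusive means half reach 75% but not the mean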;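 further: 0% = cytokine-treated negative control wells and 100% = positive control rescue; higher means more ATP so stronger rescue from cytokine killing; wells of about 40 µL received 100 nL stock; the first replicate is given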
T cruzi inh: T. cruzi replication inhibition; T. cruzi beta-gal in NIH3T3, luminescence, 90 h; inhibition, % (no concentration beside the values); 300,000 tested, 1.4% active; AID 1885;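 active means mean inhibition across valid replicates above about 55%, limit read from the data; inconclusive means mean below that limit but half or more replicates reach it; inactive means mean below it, under half of replicates reach it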;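 further: signal also drops with host cell toxicity which is not excluded here; 0% = plate median of DMSO wells and 100% = zero luminescence signal; higher percent means less beta-gal luminescence so fewer parasites; stock transfer was 50 nL into about 50 µL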
MLL AF4-AF9 inh: blocks AF4 peptide binding to human AF9; P42568; AlphaScreen, biotin-AF4 peptide binding to FLAG-AF9; inhibition, % at 10 µM; 350,000 tested, 0.47% active;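 active means every replicate reaching a set inhibition limit, whatever the replicate mean, cut at about 25% in these data; inconclusive means mean inhibition reaches that limit but some replicates miss it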;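 further: 0% = plate neutral control median and 100% = total signal loss; the record names both 10 and 1 µM as test concentration; the first replicate is given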
Target sequence (P42568 whole entry, looked up): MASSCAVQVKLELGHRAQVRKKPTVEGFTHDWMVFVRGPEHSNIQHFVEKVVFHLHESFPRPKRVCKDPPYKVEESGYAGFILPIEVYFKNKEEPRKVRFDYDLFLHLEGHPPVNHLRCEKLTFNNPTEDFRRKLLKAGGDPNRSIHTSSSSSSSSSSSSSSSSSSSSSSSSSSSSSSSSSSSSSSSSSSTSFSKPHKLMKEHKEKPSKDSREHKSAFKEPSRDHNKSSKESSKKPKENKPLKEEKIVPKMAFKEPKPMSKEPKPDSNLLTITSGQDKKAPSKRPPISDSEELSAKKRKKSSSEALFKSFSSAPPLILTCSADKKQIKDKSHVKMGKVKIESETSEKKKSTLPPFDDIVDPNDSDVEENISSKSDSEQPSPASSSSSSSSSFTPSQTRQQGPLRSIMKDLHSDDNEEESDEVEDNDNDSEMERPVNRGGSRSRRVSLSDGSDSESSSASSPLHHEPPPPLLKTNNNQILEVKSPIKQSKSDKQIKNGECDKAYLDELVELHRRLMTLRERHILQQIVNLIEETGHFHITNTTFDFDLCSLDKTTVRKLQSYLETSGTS
Calb FLC: C. albicans growth modulation with fluconazole; C. albicans CaCi-2 (fluconazole-resistant clinical isolate) + fluconazole, Alamar Blue growth, 48 h; growth inhibition, % (test concentration not listed); 300,000 tested, 0.57% active;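 active means most replicates above 75%; inconclusive means exactly half above 75%; inactive means most below 75%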;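 further: all wells also contain fluconazole at 8 µg/ml as a sub-toxic cotreatment; 0% = median of DMSO wells and 100% = median of geldanamycin control wells; wells of about 8 µL received 7.5 nL stock; the first replicate is given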
A1 inh: inhibitors of the anti-apoptotic protein A1, read as caspase activation | caspase activation, % (concentration not given with the values) | 330,000 tested, 0.066% active | AID 2462 | MEF A1-2A-BIM cells, Caspase-Glo 3/7 luminescence, 3 h; percent of clofoctol response, vehicle zero;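 active means over half of replicate activation scores above 10%, or exactly half above 10 with the replicate mean above 10; inconclusive means replicate mean below 10 yet half the replicates above 10; inactive means over half of replicates below 10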;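 further: wells of about 30 µL received 50 nL stock; many hits fall short of the cut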
rRNA inh HTS OD600: second read-out of rRNA inh HTS, no call of its own (marks repeat the call); OD600 change, %; measured here: OD600 growth;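 optical density of the mix in the first replicate; 0 = DMSO median and -100 = no signal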
rRNA inh HTS RFP: second read-out of rRNA inh HTS, no call of its own (marks repeat the call); RFP signal change, %; measured here: RFP humanized mutant strains;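 first replicate; 0 = DMSO median and -100 = no signal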
* = called active by the depositor; ? = inconclusive; · = no result given; & = joins results of further samples. Not all compounds are listed. The share of hits here may be higher or lower than overall.

SMILES	RanGTP-Imp inh	rRNA inh HTS	rRNA inh HTS OD600	rRNA inh HTS RFP	Vif A3G	Beta apoptosis	T cruzi inh	MLL AF4-AF9 inh	Calb FLC	A1 inh
CC(=O)OC(C(=O)N1CCN(c2ccccc2F)CC1)c1ccccc1 (stereo unspecified)	-4.3	·	·	·	-11%	-3	0	·	-1	0.8
CS(=O)(=O)c1cccc(NC(=O)C2CC2)c1	·	3	12	0.5	32%	-6	1	-3.5	14	-0.7
O=C(Nc1nnc(Cc2ccccc2)s1)c1cnccn1	3.7	14	13	1.3	7%	-4	-15	-2.2	45	0.3
O=C1COc2ccc(S(=O)(=O)Nc3ccc(F)cc3)cc2N1	-1.8	0	2	0.4	·	·	-2	-5.1	-1	·
CCN=C1SC(CC(=O)Nc2ccccc2)C(=O)N1CC (stereo unspecified)	-3.9	5	13	1.1	-5%&3%	-6	10	-8.3	-3	-0.2
COc1ccc(CC(=O)NNC(=O)COc2ccc(F)cc2)cc1S(=O)(=O)N1CCOCC1	·	6	8	0.2	-9%	-1	·	-1.6	·	-0.7
N#C/C(=C\c1cccs1)C(=O)NCc1ccccc1	0.0	·	·	·	·	-2	-14	·	0	-1.1
NC(=O)CSc1nnc2ccc(-c3ccco3)nn12	4.0	10	21	0.1	·	1	-19	4.8	-10	0.0
COc1ccccc1N1CCN(c2nccc(C)n2)CC1	-4.2	4	3	6.3	·	0	5	0.4	-7	1.1
CC1(C)CC(=O)C=C(NNC(=O)C2CCCCC2)C1	19*	·	·	·	1%	·	0	·	-30	-0.3
NC(=O)c1ccc[n+](Cc2ccccc2)c1	-0.2	·	·	·	3%	-1	0	·	-13	0.1
CC(C)Cn1c(=O)c2ccccc2n2c(CCC(=O)NCc3ccccn3)nnc12	?	2	-6	0.4	·	-10	4	-4.5	-7	0.9
COCCNC(=O)CSc1nc2ccccc2c(=O)n1CCC(=O)N1CCN(c2ccccc2)CC1	1.5	-4	-1	3.2	-4%	-5	13	-0.4	-4	0.2
CCC(=O)N/C(N)=N/c1nc(C)c2cc(OC)ccc2n1	-2.3	·	·	·	27%	-5	35	·	?	1.2
O=C(CCCCCNS(=O)(=O)c1ccc(Br)cc1)NCCN1CCOCC1	·	9	4	-10.0	?	·	·	6.0	·	0.1
O=C(CSc1ccsc1[N+](=O)[O-])N1CCN(c2ccccc2)CC1	-5.6	-3	-8	-1.2	3%	-6	1	1.9	0	0.6
COc1ccc(/C(C)=N/NC(=O)c2ccc(N(C)C)cc2)cc1	2.3	·	·	·	-5%	1	2	·	-9	0.0
COc1cccc(NC(=O)Cn2c(=O)oc3ccccc32)c1	-0.8	4	-1	-9.5	-2%	3	-8	3.3	1	-0.8
Clc1ccccc1COc1ccc(/C=N/n2cnnc2)cc1	-0.1	2	7	-2.9	-6%	-3	20	-0.3	30	-0.8
CC1(C)CC(CC(=O)O)(c2ccccc2)CCO1 (stereo unspecified)	1.1	·	·	·	0%	1	-17	·	-8	0.1
NC(=O)CSc1nnc(-c2cccc(S(=O)(=O)N3CCCCC3)c2)o1	5.0	8	6	6.0	-22%	1	-10	-9.1	-11	-0.4
CCO[C@@H]1OC(C(N)=O)=C[C@H](c2ccc(Br)cc2)[C@H]1CCCO	8.0	1	-14	-3.4	·	-2	-11	-3.3	4	-0.6
O=C(NCc1cccnc1)c1ccc2c(c1)N(Cc1ccccc1)CCS2	4.9	-7	-3	-5.4	·	11	4	-2.7	4	0.7
Fc1c(F)c(F)c(/C=N/NC(=S)Nc2cccnc2)c(F)c1F	1.4	22	23	1.8	-4%	33	-8	-2.9	-31	-0.8
CC1(C)CC(=O)C=C(Nc2ccccc2F)C1	25*	·	·	·	0%	·	6	·	22	0.5

(more compounds)
SMILES	RanGTP-Imp inh	rRNA inh HTS	rRNA inh HTS OD600	rRNA inh HTS RFP	Vif A3G	Beta apoptosis	T cruzi inh	MLL AF4-AF9 inh	Calb FLC	A1 inh
CCNC(=O)/C(C#N)=C/c1c(N2CCN(Cc3ccc4c(c3)OCO4)CC2)nc2c(C)cccn2c1=O	9.3	-10	-21	30	·	-9	35	18	13	1.4
O=C(NCc1ccccc1F)C1CCN(C(=O)Nc2ccc(F)cc2)CC1	1.7	0	-5	1.0	·	1	-14	-3.4	-1	0.2
COc1ccccc1NC(=O)COc1ccccc1C(=O)Nc1ccccc1	1.6	-6	-11	-2.5	-10%	-4	-1	-0.5	37	-0.6
O=C(O)COc1ccccc1/C=N/NC(=O)Cc1csc(Nc2cccc(C(F)(F)F)c2)n1	-0.5	-7	-12	1.8	·	·	-10	-1.3	-7	-0.2
COc1ccccc1CNC(=O)C(CCSC)NS(=O)(=O)c1ccc2c(c1)oc(=O)n2C (stereo unspecified)	1.3	·	·	·	-3%&2%	-1	16	·	1	0.0
O=S(=O)(Nc1nc2ccccc2nc1NCC1CCCO1)c1ccc(F)cc1 (stereo unspecified)	2.4	-1	-13	-5.4	10%	-2	-2	5.2	-8	-0.6
CC(C)c1ccccc1OCC(=O)NCC(c1cccs1)N1CCOCC1 (stereo unspecified)	-2.2	·	·	·	?	14	6	·	-22	-0.8
Cc1cc(C)nc(SCC(=O)c2ccc3c(c2)OCCO3)n1	0.1	8	7	8.5	30%	2	-11	-6.1	1	-0.2
O=[N+]([O-])c1cccnc1NCCc1c[nH]c2ccccc12	4.9	6	0	-1.2	2%	-1	3	-1.0	-2	-6.1
COCCCNC(CC(=O)Nc1cc(C)cc(C)c1)C(=O)O (stereo unspecified)	-1.4	13	8	3.1	·	-3	-15	4.0	?	0.9
O=C(NCCCN1CCN(CCCNC(=O)c2cccc(Cl)c2)CC1)c1cccc(Cl)c1	5.1	·	·	·	1%	-1	32	·	-3	1.4
COC(=O)c1cc(NC(=O)c2cc(C)oc2C)cc(C(=O)OC)c1	0.8	·	·	·	21%	1	4	·	11	-0.5
COc1cc(OC)cc(C(=O)NNC(=S)NC2CC2)c1	0.4	14	16	1.4	1%	-5	2	-2.0	14	0.8
COc1ccc(CC(NC(C)=O)C(=O)NC2CCN(c3nc(C)cc(C)c3C#N)CC2)c(OC)c1 (stereo unspecified)	-0.3	·	·	·	14%	-1	7	·	-9	-0.1
C=CCNC(=O)c1cc2c(=O)n3cc(C)ccc3nc2nc1NCC1CCCO1 (stereo unspecified)	179*	·	·	·	·	2	9	·	6	-0.9
CC(=O)Nc1ccc(S(=O)(=O)NC2CCCCCC2)cc1	3.1	0	3	-0.1	0%	1	-3	0.5	-5	-0.2
O=C1CC2(CCN(C(=O)COc3ccccc3)CC2)Oc2ccccc21	1.6	5	3	2.6	·	-2	-1	-0.8	8	1.0
COCCn1nnnc1C(c1ccc(OC)cc1OC)N1CCN(c2ccccc2)CC1 (stereo unspecified)	4.2	·	·	·	?	-6	3	·	-1	1.2
COc1ccc(C2=NNC(c3cc(Cl)cc4c3OCOC4)C2)c(O)c1 (stereo unspecified)	-6.7	·	·	·	-31%	·	-7	·	-10	0.7
COc1ccc2[nH]c(C(=O)NCc3ccccc3)cc2c1	-4.3	2	12	-0.1	·	-8	10	-2.2	-7	-0.2
COc1ccc(N=Cc2c[nH][nH]c2=O)cc1	-0.7	·	·	·	17%	·	-3	·	11	0.0
CCc1ccc(NC(=O)COC(=O)CCCC2=NS(=O)(=O)c3ccccc3N2)cc1	1.1	-17*	-12*	5.5*	32%	-8	-3	-1.4	-1	1.1
CCCNC(=O)COC(=O)c1ccccc1C(=O)N(C)C1CCCCC1	0.5	3	3	2.1	·	2	12	-0.5	-19	0.3
O=[N+]([O-])c1ccc(N2CCCCC2)c(Cl)c1N1CCCCC1	2.3	·	·	·	3%	-5	15	·	-10	-0.7
Cc1c(OCC(=O)NCCCN2CCOCC2)ccc2c1oc(=O)c1ccccc12	0.4	5	3	0.8	·	·	-4	2.2	4	-1.0

Among those listed so far, 4 contain a Cl atom.
SMILES	RanGTP-Imp inh	rRNA inh HTS	rRNA inh HTS OD600	rRNA inh HTS RFP	Vif A3G	Beta apoptosis	T cruzi inh	MLL AF4-AF9 inh	Calb FLC	A1 inh
Clc1ccccc1COc1ccc(/C=N/n2cnnc2)cc1	-0.1	2	7	-2.9	-6%	-3	20	-0.3	30	-0.8
O=C(NCCCN1CCN(CCCNC(=O)c2cccc(Cl)c2)CC1)c1cccc(Cl)c1	5.1	·	·	·	1%	-1	32	·	-3	1.4
COc1ccc(C2=NNC(c3cc(Cl)cc4c3OCOC4)C2)c(O)c1 (stereo unspecified)	-6.7	·	·	·	-31%	·	-7	·	-10	0.7
O=[N+]([O-])c1ccc(N2CCCCC2)c(Cl)c1N1CCCCC1	2.3	·	·	·	3%	-5	15	·	-10	-0.7

Following part:
SMILES	RanGTP-Imp inh	rRNA inh HTS	rRNA inh HTS OD600	rRNA inh HTS RFP	Vif A3G	Beta apoptosis	T cruzi inh	MLL AF4-AF9 inh	Calb FLC	A1 inh
NC(=O)C1CCCN(C(=O)c2ccc(NC(=O)c3cccs3)cc2)C1 (stereo unspecified)	·	20	11	0.8	2%	0	·	0.5	·	-0.6
O=C(N/N=C/c1ccccc1OC(=O)N1CCOCC1)c1cccs1	0.6	17	19	4.0	·	-5	3	-1.7	-9	-0.2
O=c1c2ccccc2oc2cc(OCc3cccc(F)c3)cc(O)c12	5.1	-3	1	-2.0	4%	6	-3	-0.5	3	-0.2
O=C(CSC1=NS(=O)(=O)c2cc(F)ccc2N1)NCc1ccccc1Cl	0.8	0	-1	-0.7	-3%	·	2	-1.4	5	0.6
Cc1nc2ncnn2c(C)c1Cc1cccc(C(F)(F)F)c1	1.7	-10	-14	-2.1	·	1	-7	-0.9	5	0.0
COc1ccc(NC(=S)N2CCC(c3nc4ccccc4o3)CC2)c(OC)c1	-0.5	8	3	0.3	12%	2	-9	-0.4	0	1.4
CC(C)C(=O)Nc1cccc(C(=O)Nc2nnc(C(C)(C)C)s2)c1	0.9	·	·	·	-1%	-8	2	·	-34	-0.9
CCOC(=O)/C=C/C(=O)Nc1ccc(Oc2ccccc2)cc1	-1.2	-38	-43	-7.7	-8%	-10	-39	-1.6	37	-0.6
Cc1cc(C)c(S(=O)(=O)NCC(=O)NCc2ccccn2)c(C)c1	-2.7	9	13	-0.5	4%	-7	4	-1.3	7	0.4
COc1ccc(OC)c(NC(=O)COC(=O)CCCN2C(=O)c3ccccc3C2=O)c1	3.7	-1	9	-2.8	0%	7	-13	4.9	23	0.0

Screening data from PubChem BioAssay.
